From PubChem
Choline anaer gr: inhibitors of anaerobic choline-dependent gram-negative bacterial growth | Gram-negative bacterium anaerobic choline minimal medium, absorbance growth; stronger effect = lower value; many inactives read as strong as hits in the columns shown | calls only | hit rate 0.2% among 55,000 | AID 1963822;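 active means growth z-score on choline under -2 at 7 or 20 h with little or no fall on glycerol, limits in tiers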;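 further: stock transfer was 300 nL into about 50 µL; the organism is E. coli; final concentration not given here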
Choline anaer gr early: recorded beside Choline anaer gr, whose call it bears; z-score; measured here: choline growth z-score, timepoint 1;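 score of optical density at 7 h as mean of two plates; lower means less growth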
* = called active by the depositor; i = inactive; + = active, no number; & = joins results of further samples. Not all compounds are listed; rates above refer to the full screens.

mol | Choline anaer gr | Choline anaer gr early
CCC(=O)N1CCc2cc(N3CC(C(=O)N4CCC5(CC4)OCCO5)CC3=O)ccc21 (stereo not drawn) | i | 0.48
CCCCCN(C)CCC(O)(P(=O)(O)O)P(=O)(O)O | i | -0.62&0.75&0.42
CC1OC(=O)C(C(C)C)NC(=O)C(C(C)C)OC(=O)C(C(C)C)NC(=O)C(C)OC(=O)C(C(C)C)NC(=O)C(C(C)C)OC(=O)C(C(C)C)NC(=O)C(C)OC(=O)C(C(C)C)NC(=O)C(C(C)C)OC(=O)C(C(C)C)NC1=O (stereo not drawn) | i | 0.27
CNCC(O)c1ccc(O)cc1 (stereo not drawn) | i | 0.74&0.4&0.48
CN(N=O)c1ccc(O)c(O)c1 | i | 0.02
C=C(C)CN1CC[C@]23c4c5ccc(O)c4O[C@H]2c2[nH]c4ccccc4c2C[C@@]3(O)C1C5 | i | -1.6
CCN(CC)C(C)C(=O)c1ccccc1 (stereo not drawn) | i | 0.01
O=C1NC(=O)c2c1c1c3ccccc3[nH]c1c1[nH]c3ccccc3c21 | i | 0.1
NC(=O)COc1c(F)cc(SCCNS(=O)(=O)c2ccccc2)cc1F | i | 0.59
O[C@H]1[C@H](O)[C@@H](O)CN2CC[C@H](O)[C@H]12 | i | 0.18
Cc1ccc(-n2cc(C3=CCN(CC(=O)Nc4cccnc4)CC3)cn2)cc1 | i | 0.12
Cc1[nH]cnc1CCN | i | 0.61
c1ccc(CCNCc2ccc3nccnc3c2)cc1 | i | -3.8
CCCCCCCCCCCC[N+](C)(C)CCOc1ccccc1 | i | -2.9
COc1ccc2c(c1)C1(CCN(C(=O)NC(C)(C)C)C1)C(=O)N2 (stereo not drawn) | i | 0.35
Clc1ccc(CSC(Cn2ccnc2)c2ccc(Cl)cc2Cl)cc1 (stereo not drawn) | i | 0.07&0.21
O=C(Nc1nccs1)c1cccn(Cc2ccc(Cl)cc2)c1=O | i | 1
O=C1CN=C(c2ccccc2)c2cc([N+](=O)[O-])ccc2N1 | i | 0.19
Cc1nnc2cc(N3CCN(C)CC3)cnn12 | i | -0.06
CCOC(=O)Cc1ccc(NC(=O)N2Cc3ccccc3-n3cccc3C2C)cc1 (stereo not drawn) | i | -0.26
Cc1ncc2n1-c1ccc(Cl)cc1C(c1ccccc1F)=NC2 | i | 0.74
CC(C)[C@H]1CN[C@H](C(=O)O)[C@H]1CC(=O)O | i | 0.56
C[C@]12CC[C@H](O)C[C@H]1CC[C@@H]1[C@@H]2CC[C@]2(C)[C@@H](C3=CC(=O)OC3)CC[C@]12O | i | 0.42
CN(C)CCCNC(=O)c1cc2cccnc2n(Cc2ccccc2)c1=O | i | 0.11
NNC(N)=O | i | 0.27
OC1C2(c3ccccc3)CN3CN(C2)CC1(c1ccccc1)C3 (stereo not drawn) | i | -0.12
O=[N+]([O-])O[C@H]1CO[C@H]2[C@@H]1OC[C@H]2O[N+](=O)[O-] | i | 0.44
Clc1cc(I)cc(Cl)c1NC1=NCCN1 | i | -0.51
CCOC(=O)Cc1csc(NC(=O)c2cccn(Cc3ccc(Br)cc3)c2=O)n1 | i | 1.3
CN1C2CCC1CC(OC(c1ccc(F)cc1)c1ccc(F)cc1)C2 (stereo not drawn) | + | -2.9*
OC[C@H]1O[C@@H](n2cnc3cc(Cl)c(Cl)cc32)C(O)[C@H]1O (stereo partly drawn) | i | -0.51
COc1ccc2c(c1)C1(CCN(C(=O)NC3CCCCC3)C1)C(=O)N2C (stereo not drawn) | i | -0.02
Oc1ccc2c3c1O[C@H]1c4oc5ccccc5c4C[C@@]4(O)[C@@H](C2)N(CC2CC2)CC[C@]314 | i | 1
COc1ccc(CNC(=O)N2CCC3(C2)C(=O)N(C)c2ccc(OC)cc23)cc1 (stereo not drawn) | i | -0.04
CN1CCCCC1Cn1cc(C(=O)c2cc([N+](=O)[O-])ccc2I)c2ccccc21 (stereo not drawn) | i | -0.45
O=C1/C(=C/c2ccccc2)C[C@@]2(O)[C@H]3Cc4ccc(O)c5c4[C@@]2(CCN3CC2CC2)[C@H]1O5 | i | 0.66
CC(CCc1ccccc1)NC(C)C(O)c1ccc(O)cc1 (stereo not drawn) | i | 0.22&-0.25
CCC(=O)N1N=C2C3CCN(CC3)[C@@H]2[C@@H]1c1cccc(OC)c1OC | i | 0.35
CCN1C[C@]2(COC(=O)c3ccccc3N3C(=O)C[C@H](C)C3=O)CC[C@H](OC)[C@]34C2[C@H](OC)[C@](O)([C@H]13)[C@@]1(O)C[C@H](OC)[C@H]2C[C@@H]4[C@@H]1[C@H]2OC | i | -0.63
COc1ccc2c(c1)C1(CCN(C(=O)CC(C)(C)C)C1)C(=O)N2 (stereo not drawn) | i | 0.29

Pulled by structure from the list above:
mol | Choline anaer gr | Choline anaer gr early
CCC(=O)N1N=C2C3CCN(CC3)[C@@H]2[C@@H]1c1cccc(OC)c1OC | i | 0.35
COc1ccc(CNC(=O)N2CCC3(C2)C(=O)N(C)c2ccc(OC)cc23)cc1 (stereo not drawn) | i | -0.04
CC(CCc1ccccc1)NC(C)C(O)c1ccc(O)cc1 (stereo not drawn) | i | 0.22&-0.25
O=C1/C(=C/c2ccccc2)C[C@@]2(O)[C@H]3Cc4ccc(O)c5c4[C@@]2(CCN3CC2CC2)[C@H]1O5 | i | 0.66
Oc1ccc2c3c1O[C@H]1c4oc5ccccc5c4C[C@@]4(O)[C@@H](C2)N(CC2CC2)CC[C@]314 | i | 1
CN1CCCCC1Cn1cc(C(=O)c2cc([N+](=O)[O-])ccc2I)c2ccccc21 (stereo not drawn) | i | -0.45
COc1ccc2c(c1)C1(CCN(C(=O)CC(C)(C)C)C1)C(=O)N2 (stereo not drawn) | i | 0.29

Next entries.
mol | Choline anaer gr | Choline anaer gr early
C[C@]12CC[C@H]3[C@@H](CCC4=CC(=O)CC[C@@H]43)[C@@H]1CC[C@@H]2O | i | 0.09
CC(C)NC(C)Cc1ccc(I)cc1 (stereo not drawn) | i | -0.61
Cc1[nH]nc2c1C(c1cccc(O)c1)SCC(=O)N2 (stereo not drawn) | i | -0.04
CCSc1nnc(NC(=O)c2cccn(Cc3ccccc3Cl)c2=O)s1 | i | 0.31
NCCc1c[nH]c2ccc(C(N)=O)cc12 | i | 0.11&0.57
Cc1nc(-c2ccncc2)nc2c1CC(=O)N2CCN1CCN(C)CC1 | i | 1.3
N#CC(=Cc1ccc(O)c(O)c1)C(N)=S | i | -0.02
Cc1[nH]nc2c1C(c1ccc(O)cc1)SCC(=O)N2 (stereo not drawn) | i | 1
COc1ccc2c(c1)C1(CCN(C(=O)C(C)C)C1)C(=O)N2 (stereo not drawn) | i | -1.7
CC[N+]1(C)CCCC(OC(=O)C(O)(c2ccccc2)c2ccccc2)C1 (stereo not drawn) | i | 0.63
CN1C2CCC1CC(OC(c1ccccc1)c1ccccc1N)C2 (stereo not drawn) | i | 0.87
CCOP(=S)(OCC)Oc1nc(Cl)c(Cl)cc1Cl | i | -0.75
CC[C@H](C)[C@H]1O[C@]2(C=C[C@@H]1C)C[C@@H]1C[C@@H](C/C=C(\C)C(O[C@H]3C[C@H](OC)C(O[C@H]4C[C@H](OC)[C@@H](O)[C@H](C)O4)[C@H](C)O3)[C@@H](C)/C=C/C=C3\CO[C@@H]4[C@H](O)C(C)=C[C@@H](C(=O)O1)[C@]34O)O2 (stereo partly drawn) | i | 1.2
O=C(O)c1c[nH]c2ccc(S(=O)(=O)N3CC4CC(C3)c3cccc(=O)n3C4)cc2c1=O (stereo not drawn) | i | 1.1
O=C(Nc1ccc2c(c1)OCO2)c1cccn(Cc2c(F)cccc2Cl)c1=O | i | 0.2
Fc1ccc(C2NCCc3[nH]cnc32)c(F)c1F (stereo not drawn) | i | 0.75
O=C(NC1CN2CCC1CC2)c1cc2ccoc2cn1 (stereo not drawn) | i | -0.27
CCCCC/C=C\C=C\[C@H](CCCCCCCC(=O)O)OO | i | 0.43
O=c1[nH]c2ccccc2n1CCCN1CCC(n2c(=O)[nH]c3cc(Cl)ccc32)CC1 | i | 0.03&-0.09&-0.06&0.33
C[N+](C)(C)CC(=O)O | i | 0.83
CCC(Oc1ccc(Cl)cc1)C(=O)OC1CC2CCC(C1)N2C (stereo not drawn) | i | 0.65
CCCCCCCCCCCCCC(=O)O[C@@H]1[C@@H](C)[C@@]2(O)[C@@H](C=C(CO)C[C@@]3(O)C(=O)C(C)=C[C@@H]23)C2C(C)(C)[C@@]21OC(C)=O (stereo partly drawn) | i | 0.72
N[C@@]1(C(=O)O)CC[C@@H](C(=O)O)C1 | i | 0.55
COc1ccc2c(c1O)-c1cccc3c1[C@@H](C2)N(C)CC3 | i | 0.39
CC(C)CCNC(=O)N1Cc2ccccc2-n2cccc2C1C (stereo not drawn) | i | 0.81
CC(C)(C)c1cc(C=C(C#N)C#N)cc(C(C)(C)C)c1O | i | 0.67&0.47&0.37
O=C1Nc2cc(Cl)c(Cl)cc2N2CCNCC12 (stereo not drawn) | i | 0.82
C[C@H](N)Cn1ccc2cc(F)c(Cl)cc21 | i | -0.28
CC1=NCCc2c1[nH]c1ccccc21 | i | 1
C=CCC1(CC(C)C)C(=O)NC(=O)NC1=O | i | 0.22
CCOC(=O)C1(c2ccccc2)CCN(CCC(C#N)(c2ccccc2)c2ccccc2)CC1 | i | 0.78
COC[C@H]1OC(=O)c2coc3c2[C@@]1(C)C1=C(C3=O)[C@@H]2CCC(=O)[C@@]2(C)C[C@H]1OC(C)=O | i | 0.64
CN1C(=O)CCS(=O)(=O)C1c1ccc(Cl)cc1 (stereo not drawn) | i | -0.09&0.13&-0.17
O=S1(=O)N(Cc2ccc(F)cc2)CCCN1Cc1ccccc1F | i | 0.64
Cc1cccc(Cn2cccc(C(=O)Nc3nc(C)cs3)c2=O)c1 | i | -1
CCCN(CCC)[C@@H]1CCc2cccc(O)c2C1 | i | -0.76
CCCCCCCCCCCCCCCCOC[C@@H](O)COP(=O)([O-])OCC[N+](C)(C)C | i | -1.2&0.15
O=c1n(Cl)c(=O)n(Cl)c(=O)n1Cl | i | 0.24
CCc1ccc(-n2c(N3CCC(C)CC3)nc3ccccc3c2=O)cc1 | i | 1.1
CC1=C(O)C(=O)[C@@H]2O[C@@H]2C1=O | i | -2.5
Oc1ccc2c3c1O[C@H]1c4[nH]c5c(c4C[C@@]4(O)[C@@H](C2)N(CC2CC2)CC[C@]314)C[C@@]1(O)[C@H]2Cc3ccc(O)c4c3[C@@]1(CCN2CC1CC1)[C@H]5O4 | i | 0.79&0.14
C[C@]12CCC(=O)C(O)=C1CC[C@@H]1[C@@H]2CC[C@]2(C)C(=O)CC[C@@H]12 | i | 0.35&0.57
C[C@@H]1C[C@@H]([C@H](O)CC2CC(=O)NC(=O)C2)C(=O)[C@@H](C)C1 | i | 0.41
COCCNC(=O)CN1CC=C(c2noc(C3CCC3)n2)CC1 | i | 0.49
O=C(CN1CCCN(Cc2ccccc2)S1(=O)=O)N1CCCCC1 | i | -0.85
CCCCCC=CCC=CCC=CCC=CCCCC(=O)Nc1ccc(O)cc1 | i | 0.49
COC(=O)c1sc2nc3c(cc2c1N)CN(C(C)C)CC3 | i | -3
Cc1cccc([C@H]2N(c3ccccn3)C(=O)[C@@H]3CCCN32)c1 | i | 1.3
CC[C@@H]1/C=C/C=C/C[C@H](C)[C@@H](O)[C@](C)(O)C(=O)[C@H](C)[C@@H](O)[C@H](C)C(=O)[C@H](C)[C@@H](O)[C@H](C)/C=C/C(=O)O[C@H]2[C@@H](C)[C@@H](CC1)O[C@@]1(CC[C@@H](C)[C@@H](C[C@H](C)O)O1)[C@@H]2C | i | 0.29
COc1ccc2c(c1)C1(CCN(C(=O)CC(C)(C)C)C1)C(=O)N2C (stereo not drawn) | i | -0.67

Next section
mol | Choline anaer gr | Choline anaer gr early
CC(N)Cc1c[nH]c2ccc(OCc3cccs3)cc12 (stereo not drawn) | i | -0.69&-0.5
COCc1cc(C2SCC(=O)Nc3c2c(-c2ccccc2)nn3-c2ccccc2)ccc1OC (stereo not drawn) | i | 1.5
CCC12CN3CC(CC)(CN(C1)C3c1ccccn1)C2O (stereo not drawn) | i | 0.62
CN1C(=O)CN=C(c2ccccc2)c2cc([N+](=O)[O-])ccc21 | i | 0.45
CNCCc1ccc(O)c(O)c1 | i | -0.31
Cc1nc(-c2ccncc2)nc2c1CC(=O)N2CCN1CCOCC1 | i | 0.31
FC(F)(F)c1cccc(N2CCNCC2)c1 | i | -1.1
CCOc1ccc2nc(NC(=O)c3cccn(Cc4ccc(Br)cc4)c3=O)sc2c1 | i | -0.23
C[C@]12Cc3cn[nH]c3C[C@@H]1CC[C@@H]1[C@@H]2CC[C@@]2(C)[C@H]1CC[C@]2(C)O | i | -0.68&0.27
CCn1c(CN2CCN(C)CC2)nc2ccccc21 | i | 0.11
CCC(=O)N1N=C2C3CCN(CC3)[C@@H]2[C@@H]1c1cccc(OC)c1 | i | 0.9
CCOc1ccc([C@H]2[C@@H]3C(=NN2C(C)=O)C2CCN3CC2)cc1 | i | 0.81
C[C@H](Cc1ccc(OCC(=O)O)cc1)NC[C@H](O)c1cccc(Cl)c1 | i | 0.46
O=C1CCCN1CC#CCN1CCCC1 | i | 0.76&-0.82&0.21
CCC(=O)N1CCC2(C1)C(=O)N(C)c1ccc(OC)cc12 (stereo not drawn) | i | -0.72
CC(C)CC(NP(=O)(O)O[C@@H]1O[C@@H](C)[C@H](O)[C@@H](O)[C@H]1O)C(=O)NC(Cc1c[nH]c2ccccc12)C(=O)O (stereo partly drawn) | i | 0.25
C[C@]12N[C@H](Cc3ccccc31)c1ccccc12 | i | 0.78&-0.93&-0.28
Cn1cc(C2=CCN(CC(=O)NCCC3=CCCCC3)CC2)cn1 | i | 0.56
COc1ccc(C(=O)N2CCCC2=O)cc1 | i | -0.49&-1.1&0.24&1
CCCCC/C=C\C/C=C\C/C=C\C=C\[C@H](CCCC(=O)O)OO | i | 0.48
NC(N)=NOCC[C@H](N)C(=O)O | i | -0.4
